VDR inh: Inhibitors of the vitamin D receptor (VDR): qHTS. Vitamin D3 receptor (Homo sapiens), P11473. VDR-SRC2-3 peptide fluorescence polarization, 2 h. Potency, µM, for the others: max response, negative = inhibition, usual class: inhibitors. actives 0.93% (n = 400,000). AID 504847, 2011; active = well fitted inhibition curve with a large enough effect; inconclusive = small, poorly fitted or top-dose-only effect, or another doubt; inactive = no such curve, though single readings can be large or run the other way; note: series mostly up to about 120 µM
Target sequence (P11473 whole entry, looked up): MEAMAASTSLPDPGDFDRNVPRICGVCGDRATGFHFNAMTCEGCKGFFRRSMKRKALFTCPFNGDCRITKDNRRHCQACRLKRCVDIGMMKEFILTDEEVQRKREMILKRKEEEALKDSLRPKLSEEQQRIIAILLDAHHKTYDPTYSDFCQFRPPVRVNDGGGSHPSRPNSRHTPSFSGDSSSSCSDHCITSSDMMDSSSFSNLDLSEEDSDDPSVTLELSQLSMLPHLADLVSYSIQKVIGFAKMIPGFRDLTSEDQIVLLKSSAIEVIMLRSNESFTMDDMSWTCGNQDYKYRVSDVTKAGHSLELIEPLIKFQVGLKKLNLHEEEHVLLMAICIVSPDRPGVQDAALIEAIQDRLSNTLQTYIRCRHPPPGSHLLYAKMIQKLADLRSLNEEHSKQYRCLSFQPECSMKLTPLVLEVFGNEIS
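Fluorescence polarization assay measuring small-molecule disruption of VDR binding to the coregulator peptide SRC2-3. Compounds were pin-transferred (23 nl) into the reagent mix and incubated 2 h at room temperature before reading.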
* marks the source's active call; other numbers are inactive results; u = inconclusive; & = joins results of further samples. % is set by controls: 0 for no effect and ±100 for the full control effect; potency is the fitted concentration of half-maximal effect. A portion of the library; rates above refer to the full screens.

No.	SMILES	VDR inh
1	O=C(Nc1ccc(S(=O)(=O)N(Cc2ccccc2)c2ccccc2)cc1)c1ccc(F)cc1	12%
2	C[C@@H]1CC[C@]2(C(=O)O[C@@H]3O[C@H](CO)[C@@H](O)[C@H](O)[C@H]3O)CC[C@]3(C)C(=CCC4[C@@]5(C)CC[C@H](O[C@@H]6OC[C@H](O)[C@H](O[C@@H]7O[C@H](CO)[C@@H](O)[C@H](O)[C@H]7O)[C@H]6O)C(C)(C)C5CC[C@]43C)C2[C@]1(C)O (some centres not stated)	-14%
3	COc1cccc(-c2c(NC(=O)c3ccco3)oc3ccc(Cl)cc3c2=O)c1	-1%
4	CC(C)(C)C(=O)Nc1cccc(-c2cn3cccnc3n2)c1	13%
5	Cc1nn(Cc2ccc([N+](=O)[O-])cc2)c(=O)n1-c1ccc(F)cc1	-11%
6	COc1ccc2oc(C(=O)OCC(=O)NC(C)(C#N)C3CC3)c(C)c2c1 (configuration not stated)	0%
7	COc1ccc(N2CCN(c3ccc(NC(=O)NN)cc3)CC2)cc1	-9%
8	O=C(c1ccco1)N1CCN(Cc2nnc(-c3ccccc3F)o2)CC1	-24%
9	CC(=O)Cc1nsc(NC(=O)c2cccc(F)c2)n1	-28%
10	COc1cccc(CNS(=O)(=O)c2ccc3c(c2)NC(=O)CS3)c1	-3%
11	O=C1CC(=O)CC(c2ccccc2Cl)C1	6%
12	COC(=O)c1ccc(N2CCN(C)CC2)c(NC(=O)COc2ccc(OC)cc2)c1	14%
13	CC(=O)c1c(C)[nH]c(C(=O)NCc2ccco2)c1C	10%
14	COc1ccc(/C=C2\Oc3cc(OCC(=O)N4CCC[C@H]4CO)ccc3C2=O)c(OC)c1	7%
15	CC(C)CCNC(=O)CSc1nnc(-c2ccc(S(=O)(=O)N3CCCC3)cc2)n1C	-12%
16	COc1ccccc1NC(=O)C(=O)N/N=C/c1cccs1	-14%
17	CCOC(=O)c1c[nH]c2c(C(=O)c3ccccc3)cc(Cl)cc2c1=O	13%
18	CCc1ccc(-c2cnc3nc[nH]c(=O)c3n2)cc1	-10%
19	Cc1cccc(CSc2nnc(CCNC(=O)OC(C)(C)C)o2)c1	-5%
20	CC1(C)C([N+](=O)[O-])C(c2ccc(F)cc2)NC(c2ccc(F)cc2)C1[N+](=O)[O-] (configuration not stated)	-14%
21	O=C(NCc1ccc2c(c1)OCO2)c1cccc(S(=O)(=O)N2CCOCC2)c1	4%
22	CN(Cc1ccccc1)C(=O)c1cn(C)c2ccc(S(=O)(=O)N(C)C3CCCCC3)cc2c1=O	-5%
23	COc1ccc(CCC(=O)NC2CC(=O)N(c3ccc(OC)cc3)C2)cc1 (configuration not stated)	-1%
24	CCCCCCCCCCCCCCCCOC[C@H](COP(=O)([O-])OCC[N+](C)(C)C)OC(=O)CCCCCCCC(=O)O	u
25	Cc1nc2ccn(Cc3cccnc3)c(=O)c2cc1C(=O)Nc1ccc(F)cc1F	4%
26	Cc1occc1C(=O)N/N=C/C=C/c1ccc(N(C)C)cc1	-2%
27	Cc1ccccc1C(=O)N(Cc1sccc1C)C1CCS(=O)(=O)C1 (configuration not stated)	-3%
28	CCC(=O)OC1CSc2nc3ccccc3n2C1 (configuration not stated)	7%
29	O=C(Nc1ccc2c(c1)OCO2)C1CC(=O)N(c2ccccc2)C1 (configuration not stated)	-6%
30	CC(NC(=O)COc1ccc(/C=N/NS(=O)(=O)c2ccccc2)cc1)c1ccccc1 (configuration not stated)	18%

By substructure: the compounds so far with four or more nitrogen atoms (7)
No.	SMILES	VDR inh
4	CC(C)(C)C(=O)Nc1cccc(-c2cn3cccnc3n2)c1	13%
5	Cc1nn(Cc2ccc([N+](=O)[O-])cc2)c(=O)n1-c1ccc(F)cc1	-11%
7	COc1ccc(N2CCN(c3ccc(NC(=O)NN)cc3)CC2)cc1	-9%
8	O=C(c1ccco1)N1CCN(Cc2nnc(-c3ccccc3F)o2)CC1	-24%
15	CC(C)CCNC(=O)CSc1nnc(-c2ccc(S(=O)(=O)N3CCCC3)cc2)n1C	-12%
18	CCc1ccc(-c2cnc3nc[nH]c(=O)c3n2)cc1	-10%
25	Cc1nc2ccn(Cc3cccnc3)c(=O)c2cc1C(=O)Nc1ccc(F)cc1F	4%

Returning to the listing with the three entries that preceded the break.
No.	SMILES	VDR inh
28	CCC(=O)OC1CSc2nc3ccccc3n2C1 (configuration not stated)	7%
29	O=C(Nc1ccc2c(c1)OCO2)C1CC(=O)N(c2ccccc2)C1 (configuration not stated)	-6%
30	CC(NC(=O)COc1ccc(/C=N/NS(=O)(=O)c2ccccc2)cc1)c1ccccc1 (configuration not stated)	18%
31	COc1ccc(CN(CC2CCC(C(=O)O)CC2)C(=S)Nc2cccc(C)c2)cc1 (configuration not stated)	16%
32	COC(=O)c1c(N)sc2c1CC(C)(C)OC2	-8%
33	c1ccc(Sc2ccccn2)cc1	7%
34	CC(C)(C)c1ccc(OC2=CS(=O)(=O)c3ccccc32)cc1	16%
35	N#Cc1ccc(OCC(=O)NCCN2CCOCC2)cc1	-24%
36	CCc1nnc(NC(=O)CSc2nnc(-c3ccoc3C)n2CC(C)C)s1	-1%
37	Cc1cccc(Cn2c(N(C)CCO)nc3c2c(=O)[nH]c(=O)n3C)c1	9%
38	COc1ccc(CCNC(=O)COC(=O)c2cc(S(=O)(=O)NCc3ccccc3)ccc2O)cc1OC	-6%
39	CN1CCC(OC(=O)COc2ccc(Cl)cc2Cl)CC1	-14%
40	Cn1c(-c2ccccc2)c(C#Cc2ccc(N)cc2)c2ccccc21	-9%
41	CCOc1ccc(-n2c(=S)sc3c(=O)[nH]c(SCC(=O)NCC4CCCO4)nc32)cc1 (configuration not stated)	11%
42	CC(C)N1CCc2c(sc(NC(=O)C3CCCCC3)c2C(N)=O)C1	14%
43	Cc1nn2c(SCC(=O)c3cccs3)cc(C(C)(C)C)nc2c1-c1ccccc1	1%
44	COc1ccc(NC(=O)C(=O)NCC2(c3ccccc3)CCCC2)c(OC)c1	-2%
45	Cc1[nH]n(-c2ccc(Br)cc2)c(=O)c1/C=N/NC(=O)c1ccccc1	-15%
46	COc1ccc(CCNS(=O)(=O)c2ccc(-n3cnnn3)c(OC)c2)cc1OC	-10%
47	CC(C)CC(=O)NCCCN1CCN(CCCNC(=O)CC(C)C)CC1	-6%
48	O=C(CSc1nc2cc(Cl)ccc2s1)N1CCCc2ccccc21	-5%
49	C#CC(C)(C)NC(=O)c1sccc1Oc1ccc(F)cc1[N+](=O)[O-]	-2%
50	COc1cc(OC)c(C(=O)OCC(=O)NC2CCCCCCC2)cc1OC	9%
51	COCCOC(=O)c1sc2nc[nH]c(=O)c2c1C	0%
52	Cc1cc(CN2C(=O)c3ccccc3C2=O)no1	11%
53	O=C(NCc1ccccc1)C1=C[C@H](c2ccc(Br)cc2)C[C@H](OCCCCO)O1	-16%
54	Cc1nonc1NC(=O)CSc1nnnn1-c1ccccc1	11%
55	S=c1[nH]nc(Cc2cccc3ccccc23)o1	-1%
56	CCOc1ccc(/C=C/c2nc(C#N)c(NCc3ccccc3)o2)cc1	1%
57	CCCOc1cccc(C2c3c(oc4ccc(F)cc4c3=O)C(=O)N2CCCN2CCOCC2)c1 (configuration not stated)	-17%
58	CC(=O)Nc1ccc(C(=O)NN2C(=O)NC3(CCCCC3)C2=O)cc1	-1%
59	CCCCCn1c(=O)[nH]c2cc(C(=O)NCc3ccc(C)cc3)ccc2c1=O	-18%
60	Cc1ccc(/C(N)=N/OC(=O)c2cccc(F)c2)cc1	9%
61	O=C(Nc1ccccc1)c1ccc(S(=O)(=O)NCc2ccco2)cc1	-3%
62	N/N=C(\c1ccccc1)c1cc(Br)ccc1N	9%
63	COc1ccc(-n2nc(C(=O)NCC(=O)NC3CCCCC3)c3ccccc3c2=O)c(OC)c1	-22%
64	CC1=C(C(=O)Nc2cccnc2)C(c2ccccc2Cl)n2nc(-c3ccccc3)nc2N1 (configuration not stated)	-1%
65	COC(=O)CNS(=O)(=O)c1ccc(Cc2ccc(S(=O)(=O)NCC(=O)OC)cc2)cc1	3%
66	O=C(Nc1ccc(O)cc1)c1ccc2c(c1)C(=O)N(Cc1cccnc1)C2=O	5%
67	CCC(=O)c1ccc(OCC(=O)NC2(C#N)CCCCC2)cc1	-4%
68	O=C(CSc1ncn[nH]1)Nc1ccccc1-c1ccccc1	-7%
69	CCCCN(C(=O)c1cccs1)c1c(N)n(Cc2ccccc2)c(=O)[nH]c1=O	-9%
70	COc1ccc(C2C3=C(CC(C)(C)CC3=O)Nc3cc4c(cc32)OCO4)cc1 (configuration not stated)	-22%
71	COCCN(C(=O)CSc1nnc(Nc2ccc(C)cc2)s1)c1c(N)n(CC(C)C)c(=O)[nH]c1=O	-20%
72	Cc1ccc(OCC(=O)N/N=C/c2ccc3c(c2)OCO3)cc1C	-11%
73	O=C(O)c1cccc(COc2ccc3c(c2)CCC3)c1	-7%
74	Cc1cccc(N2CCN(Cc3cn(C)nc3-c3ccccc3F)CC2)n1	1%
75	COc1ccc(OC)c(CNS(=O)(=O)c2ccc3c(c2)CCCN3C(C)=O)c1	0%
76	CCOCCCNC(=O)CN1C(=O)CSc2ccccc21	10%
77	CC(C)N(Cc1nc(-c2ccccc2)no1)C(=O)C1CCCCC1	-10%
78	O=C(Nc1ccc([N+](=O)[O-])cc1O)Nc1ccccc1Br	-25%
79	O=C(c1ccccc1)N1N=C(c2ccc(F)cc2)CC1(O)C(F)(F)F (configuration not stated)	-6%
80	Cc1cc(NS(=O)(=O)c2ccc(NC(=O)COc3cc(C)c(Cl)c(C)c3)cc2)no1	-9%
81	NC1(C(=O)O)CC(C(=O)O)C1 (configuration not stated)	-4%&-6%
82	CC(=O)Nc1sc(N/N=C\c2ccc(O)cc2)nc1-c1cccs1	-23%
83	CC(C)(C)SCCNC(=O)CN1C(=O)c2ccccc2S1(=O)=O	-3%
84	Cc1ccc(NC(=O)CSc2ccc3c(c2)OCCO3)nc1	-12%
85	COC(=O)CSc1nnc(COc2ccc([N+](=O)[O-])cc2)n1C	-4%
86	COc1ccc(C2C(C#N)=C(N)Oc3cc(C)n(Cc4ccco4)c(=O)c32)cc1 (configuration not stated)	u
87	COc1cccc(NC(=O)c2cnc(SCC(=O)N3CCOCC3)n(C)c2=O)c1	6%
88	COc1ccccc1N1CCN(/N=C/c2cccc(O)c2)CC1	-28%
89	COc1ccc(CN(CC(=O)NCc2ccccc2)C(=O)CCC(=O)Nc2nccs2)cc1	2%
90	COc1ccc2cc(C(=O)N3CCN(c4ccccc4OC)CC3)[nH]c2c1	-6%

More compounds follow:
No.	SMILES	VDR inh
91	Cc1ccc(OCC(=O)NC2CCS(=O)(=O)C2)c(C)c1 (configuration not stated)	14%
92	CCC1(CC)C(=O)NC(=O)NC1=Nc1cccc(OC)c1	-5%
93	COc1ccc(CNc2nc3ccccc3c3nc(-c4ccccc4)nn23)cc1	-21%
94	COCCN(CCOc1cc(C)cc(C)c1)Cc1ccc(Cl)cc1	6%
95	CO/N=C(/CNC(=O)c1cccc(Cl)c1)c1ccc(Cl)cc1	-7%
96	CC1(C)Cc2c(cnn2-c2cccc(F)c2)C(NC(=O)CSc2ccccn2)C1 (configuration not stated)	-8%
97	COc1ccc(NC(=O)c2cc3c(=O)n(C)c4ccccc4c3n2C)cc1Cl	-11%
98	Cc1ccc(SCCOCCN2CCOCC2)cc1	7%
99	COC(=O)CSc1nnc(-c2ccncc2)n1N	9%
100	Cc1noc(C)c1COC(=O)CCCNC(=O)c1ccc(Cl)cc1	13%
101	Cn1c(CCNC(=O)c2ccco2)nc2cc([N+](=O)[O-])ccc21	10%
102	Cc1ccc(NC(=S)NCc2ccccc2)cc1S(=O)(=O)N1CCCCC1	-3%
103	CCOC(=O)N1CCN(C(=O)CSc2nnc(CNC(=O)c3c(F)cccc3Cl)o2)CC1	9%
104	CC(C)(C)c1ccc(OCC(O)CN2CCN(C(=O)c3ccccc3)CC2)cc1 (configuration not stated)	-14%
105	C=CC(n1cncn1)C(O)(c1ccccc1)c1ccccc1 (configuration not stated)	-9%
106	CCCOc1ccc(N2C(=O)CC(N3CCN(c4nc5ccccc5s4)CC3)C2=O)cc1 (configuration not stated)	15%
107	O=c1cc(-c2ccc(F)cc2)nc(SCc2nc(-c3ccccc3Cl)no2)[nH]1	11%
108	O=C(O)CCCC(=O)OCCCCc1cccs1	8%
109	O=C(NCCc1ccc(F)cc1)Nc1ccc([N+](=O)[O-])cc1	5%
110	CCOC(=O)C(NCCc1ccccc1)(NC(C)=O)C(F)(F)F (configuration not stated)	1%
111	Cc1ccc(S(=O)(=O)Oc2ccccc2/C=N/N=C(N)N)cc1	-16%
112	CC(C)(C)OC(=O)N1CCC(c2c(C(=O)N3CCN(Cc4ccccc4)CC3)cnn2-c2ccc(Cl)cc2)CC1	7%
113	O=C(NCc1ccco1)/C(=C\c1cccc([N+](=O)[O-])c1)NC(=O)c1ccco1	-3%
114	COC(=O)N1C(=O)[C@](c2ccccc2)(C(C)C)N1C(=O)OC	-10%
115	Cc1ccc(-c2nnc(Nc3ccc(Br)cc3)c3ccccc23)cc1S(=O)(=O)NCc1nc2ccccc2[nH]1	-20%
116	CC1CC(NC(=O)c2ncn[nH]2)CC(C)(C)C1 (configuration not stated)	-1%
117	O=C(NC1CCSc2ccccc21)c1cccc(Br)c1 (configuration not stated)	-1%
118	CCn1cc(C(=O)NCCc2ccc(Cl)cc2)c(=O)c2cc(S(=O)(=O)N3CCc4ccccc4C3)ccc21	-5%
119	C=C(C)C(O)Cc1c(OC)ccc(C(=O)/C=C/c2ccc(O)cc2)c1O (configuration not stated)	-1%
120	Cc1cc(=O)n2nc(-c3ccccc3)sc2c1C#N	u
121	C=CCn1c(SCc2cc(C(C)=O)ccc2OCC)nc2ccccc2c1=O	-10%
122	Cc1ccc(NC(=O)NNC(=O)CN2C(=O)COc3ccccc32)cc1	-10%

Screening results (PubChem)
